# Source: PubChem BioAssay (several laboratories)
# Yeast UUG start = modulators of yeast start codon fidelity, primary screen, whole organism, S. cerevisiae, single point, plate reader; activity score, % at 18.7 µM; AID 602363, 2012; S. cerevisiae UUG-firefly luciferase reporter, luminescence/redox ratio; hit rate 0.13% among 350,000;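 active = replicate mean at a twofold rise or more, about +100% in these data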;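 note: firefly luciferase made from a UUG start codon reports start codon fidelity; reporter light over untreated wells divided by growth signal over untreated wells; some hits fall short of that in this replicate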
# Rce1 inhib = yeast Rce1p protease inhibitors, primary screen, biochemical, fluorescence, cell-free homogeneous. calls only. yeast membranes, quenched prenylated peptide cleavage fluorescence. hit rate 0.27% among 290,000;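 active = fall in fluorescence gain of 50% or more versus controls, with final raw signal at or below 3038400; inconclusive = same 50% fall but final raw signal above 3038400; inactive = fall in fluorescence gain under 50%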;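 note: plate controls were neutral control wells for no effect and wells lacking membranes for full effect; tested at 10 µM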
# Target sequence (Q03530 whole entry, looked up): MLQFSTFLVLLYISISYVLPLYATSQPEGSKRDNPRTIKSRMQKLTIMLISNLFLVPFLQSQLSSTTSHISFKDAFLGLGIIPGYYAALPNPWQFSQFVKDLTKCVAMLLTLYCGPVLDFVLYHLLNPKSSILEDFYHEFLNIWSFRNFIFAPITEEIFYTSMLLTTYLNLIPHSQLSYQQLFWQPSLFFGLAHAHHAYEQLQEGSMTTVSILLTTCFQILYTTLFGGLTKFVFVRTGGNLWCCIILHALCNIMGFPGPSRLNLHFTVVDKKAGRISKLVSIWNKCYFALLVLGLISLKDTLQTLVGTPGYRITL
# PABP polyA inh = PABP poly(A) RNA binding inhibitors, primary screen, biochemical, fluorescence polarization, uHTS; inhibition, % at 35 µM; hit rate 1% among 290,000; Polyadenylate-binding protein 1 (Homo sapiens), P11940;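 active = 50% or more with normal probe brightness, or confirmed in later tests; inconclusive = above 50% with abnormal brightness, or retests that disagree; inactive = below 50% or failed in later tests; about a fifth of its hits are not listed in these tables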;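 note: calls also rest on retests at 20 µM and on dose response follow-up; controls were probe without protein and protein plus probe with vehicle; some compounds called inactive have numbers as strong as hits; many hits fall short of the cut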
# Target sequence (P11940 whole entry, looked up): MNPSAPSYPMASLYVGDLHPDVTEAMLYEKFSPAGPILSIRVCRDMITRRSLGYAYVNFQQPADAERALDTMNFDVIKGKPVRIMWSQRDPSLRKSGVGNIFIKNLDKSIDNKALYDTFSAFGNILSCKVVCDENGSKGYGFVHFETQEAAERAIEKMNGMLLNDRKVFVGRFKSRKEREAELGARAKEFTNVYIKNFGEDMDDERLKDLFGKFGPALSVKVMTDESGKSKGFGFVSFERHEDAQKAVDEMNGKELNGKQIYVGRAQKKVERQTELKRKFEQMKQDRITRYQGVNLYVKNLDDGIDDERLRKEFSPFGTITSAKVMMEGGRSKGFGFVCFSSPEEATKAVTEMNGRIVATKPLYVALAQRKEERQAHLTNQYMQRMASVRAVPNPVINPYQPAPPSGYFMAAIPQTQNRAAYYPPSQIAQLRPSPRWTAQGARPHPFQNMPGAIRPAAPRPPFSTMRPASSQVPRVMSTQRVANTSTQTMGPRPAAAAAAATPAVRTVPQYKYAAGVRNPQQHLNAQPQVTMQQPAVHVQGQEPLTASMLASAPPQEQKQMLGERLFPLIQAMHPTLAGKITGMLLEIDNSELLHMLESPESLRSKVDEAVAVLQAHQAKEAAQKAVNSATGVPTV
# CSC inhib = cancer stem cell viability inhibitors, primary screen, luminescence; AID 2717, 2010; inhibition, % at 7.5 µM; hit rate 1.1% among 300,000; cancer stem cell-like cells viability;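 active = mean at 75% or more and at least half the replicates too; inconclusive = mean and replicates disagree; tested in HMLE shEcad cells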;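 note: 0% = median of negative and 100% = median of positive control wells; the first replicate is given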
# MT1-MMP act inh = blockers of MT1-MMP proenzyme processing, primary screen, HT1080 RFP-PRO-GFP cells, GFP/RFP fluorescence; Matrix metalloproteinase-14 (Homo sapiens), P50281; GFP/RFP ratio fluorescence, overnight; percent of plate control window, DMSO zero; GFP/RFP ratio change, % at 20 µM; hit rate 0.061% among 360,000; AID 651647, 2012;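 active = GFP/RFP ratio change of at least 30% with cell ATP level not reduced by more than half and red fluorescence within 50% of control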; note: strong numbers were not always called active
#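 Compound: 20 µM single dose, 1% DMSO / System: HT1080 RFP-PRO-GFP cells / Controls: DMSO and RFP-L50D-GFP cell wells / Read-out basis: GFP/RFP fluorescence ratio / Schedule: overnight compound exposure at 37 °C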
# HIV Env fusion = inhibitors of HIV-1 Env-driven cell-cell fusion, primary screen, HeLa-JRFL effector, CEM21 target cells, luciferase. inhibition, % at 12.3 µM. hit rate 1.1% among 360,000;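 active = mean replicate inhibition score of at least 50 and every replicate individually at or above 50; inconclusive = only one of the two criteria met; inactive = mean below 50 and not all replicates reaching 50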;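 note: 0% = plate neutral controls and 100% = maraviroc near 300 nM; one replicate is shown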
# eIF4H inh = human eIF4H binding inhibitors, primary screen, translation initiation inhibitor project, biochemical, uHTS, fluorescence polarization; Eukaryotic translation initiation factor 4H (Homo sapiens), Q15056; eIF4H fluorescence polarization binding assay; inhibition, % at 35 µM; hit rate 0.94% among 290,000; AID 2012, 2009;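 active = 50% or more with normal probe brightness, or confirmed in later tests; inconclusive = above 50% with abnormal brightness, or retests that disagree; inactive = below 50% or failed in later tests; about a fifth of its hits are not listed in these tables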;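 note: calls also rest on retests at 20 µM and on dose response follow-up; 0% = protein and probe with vehicle and 100% = probe without protein; strong numbers were not always called active; many hits fall short of the cut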
# eIF4H inh retest = recorded beside eIF4H inh, whose call it bears; inhibition, %; compound at 20 µM; confirmation average;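 mean of two retest wells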
# PABP polyA inh retest = second read-out of PABP polyA inh, no call of its own (marks repeat the call); inhibition, %; compound at 20 µM; confirmation repeats;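 mean of two retest wells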
# MT1-MMP act inh RFP = further read-out of MT1-MMP act inh, marked with its call; RFP signal change, %; measured here: RFP expression control read;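 0 = vehicle wells; hits needed this value within 50% of zero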
# Active calls of the source: *; i = inactive; ? = inconclusive; . = not tested or not shown; + = active, no number; & = joins results of further samples. Some of the compounds tested; rates above refer to the full screens.
SMILES,Yeast UUG start,Rce1 inhib,PABP polyA inh,CSC inhib,MT1-MMP act inh,MT1-MMP act inh RFP,HIV Env fusion,eIF4H inh,others
CCN(CC)S(=O)(=O)c1ccc(/C=C/C(=O)O)cc1,-16,i,-8,14,0,5,23,-9,
O=C(Cc1c(Cl)cccc1Cl)NC1=NCCS1,.,i,11,-5,2,1,.,-2,
Oc1ccc(N2CCN(c3ncnc4sc(-c5ccccc5)cc34)CC2)cc1,.,i,10,.,3,-1,3,-10,
COC(=O)c1c(NC(=O)CN2C(=O)C(=O)N(CC(C)C)C2=O)sc(C)c1C,-20,i,3,-2,-3,2,.,13,
CC1CCc2c(sc3nc(CN4CCOCC4)nc(N4CCc5ccccc5C4)c23)C1 (stereo not given),.,i,16,13,-11,-4,-8,-3,
Cc1nc2ncnn2c(C)c1CCC(=O)N1CCN(C(=O)c2ccco2)CC1,-6,i,4,-3,4,3,22,-7,
COC(=O)C1=C(O)/C(=C/c2cccc(OC)c2O)N=C1C,.,i,10,-3,-2,3,-6,13,
CSc1nnc(C)c(=O)n1COC(=O)/C=C/c1ccccc1,-9,i,-2,-7,1,-1,-2,-2,
COC(=O)CSc1nc(N)c2c3c(sc2n1)C(c1ccccc1)SC(c1ccccc1)C3 (stereo not given),.,+,12,+,-219,-25,.,14,
O=C(CCCOc1ccccc1)Nc1ccc(S(=O)(=O)N2CCOCC2)cc1,12,i,1,-7,1,0,.,7,
COc1cc(OC)c2c(-c3cccc(-c4ccc(OC)c(F)c4)c3)cc(=O)oc2c1,4,.,.,.,7,-6,-82,.,
CCOc1ccc(CCNC(=O)COC(=O)c2cccnc2OCC)cc1OCC,.,i,-5,-1,6,2,-82,3,
Cc1ccc(/C=C(\C#N)C(=O)NCCN2CCOCC2)cc1,.,i,12,6,0,4,7,8,
COc1ccccc1-c1nc(C#N)c(N2CC(C)CC(C)C2)o1 (stereo not given),-13,i,4,11,2,2,-4,8,
C/C(CC(=O)Nc1ccc(N(C)C)cc1)=N\NC(=O)C(=O)NCc1ccccc1,-4,i,5,-16,3,8,12,79,eIF4H inh retest=-3;PABP polyA inh retest=-3
COc1cccc(-c2cc(C(=O)Nc3cc(C)n(Cc4ccc(Cl)cc4)n3)no2)c1,-10,i,-9,53,-3,-22,.,-11,
COc1ccc(Cl)cc1N1Cc2ccccc2C1,-2,i,6,19,-15,-1,-88,0,
CN(NC(=O)c1ccc(Cl)cc1Cl)C1=NS(=O)(=O)c2ccccc21,2,i,1,-2,-5,3,8,-2,
Cc1ccc(-c2csc3ncn(-n4c(C)ccc4C)c(=O)c23)o1,-6,i,12,14,-2,2,.,7,
O=C1CC(N2CCN(Cc3ccccc3)CC2)C(=O)N1c1ccccc1 (stereo not given),-15,i,-6,-7,5,3,-54,-7,
Cc1ccc(C2Cc3cc(O)c(O)cc3CN2)cc1 (stereo not given),-15,i,.,28,1,-1,2,.,
Cc1cccc(NNC(=S)Nc2ccccc2)c1,-11,.,.,.,-2,4,-9,.,
CSc1nnc(-c2ccccc2)n1N,-14,.,-1,.,0,2,.,7,
Cc1cccc2cc(C#N)c(N3CCCC3)nc12,-16,i,13,-8,-10,3,-228,10,
CCn1c(SC)nnc1-c1nnc(SC)n1CC,5,i,-4,-10,5,5,.,-10,
Cc1sc2c(=O)n3c(nc2c1C(=O)NCCCN1CCOCC1)CCCCC3,-3,i,-5,-8,-3,-3,.,-1,
CCCCn1c(SCC(=O)Nc2cccc(C)n2)nnc1-c1ccco1,73,i,-6,14,-6,-4,-49,-1,
O=C(OCc1ccccc1)N1CCC2CC1c1c2cccc1N1CCOCC1 (stereo not given),-5,.,.,.,2,-2,?,.,
COc1cccc2cc(C(C)OC(=O)Nc3ccc(C)cc3)oc12 (stereo not given),.,i,14,-9,-2,-2,-2,0,
O=c1cc(-c2ccsc2)oc2ccccc12,-20,.,.,-8,-1,2,-159,.,
Cc1cccn2c(=O)c3cc(C(=O)NCc4ccc(F)cc4)c(=N)n(CC4CCCO4)c3nc12 (stereo not given),10,i,-15,-8,-2,-5,-5,1,
Cc1[nH]c(C)c(S(=O)(=O)Nc2ccc(OC(F)(F)F)cc2)c1C(=O)N1CCCCC1,-24,i,0,-1,0,-3,-18,-11,
CC(Oc1ccccc1)C(=O)N1CCN(c2ccc(N3CCCCC3)nn2)CC1 (stereo not given),-16,i,.,-5,2,2,-5,.,
O=C(O)c1ccccc1C(=O)Nc1ccc(Oc2cccc3ccccc23)cc1,.,.,3,.,-5,-2,45,1,
COc1cc(NC(=O)CN2C(=O)NC(C)(CCC(C)C)C2=O)cc(OC)c1 (stereo not given),24,i,2,5,-1,-1,.,-3,
CCc1nc2ccc(C(=O)N3CCN(C(=O)c4ccco4)CC3)cn2c1N(CCC(C)C)CCN(C)C,4,.,.,.,-4,3,-56,.,
CCCCc1ccc(NC(=S)N2CCCC(CO)C2)cc1 (stereo not given),-11,i,0,-8,0,3,-27,-3,
COc1cc(/C=N/NC(=O)c2cccc(C)c2)ccc1OCC(=O)Nc1ccccc1,-13,i,.,-4,3,2,-28,.,
COc1cc(C2/C(=C(\O)c3ccc4c(c3)OCCO4)C(=O)C(=O)N2CCN2CCOCC2)cc(OC)c1OC (stereo not given),-24,i,6,-6,-2,1,-5,1,
Cn1c(-c2ccccc2)cc2onc(-c3ccccc3)c2c1=O,-65,.,.,6,.,.,-75,.,
CC(C)C[C@@H]1NC(=O)[C@H](C(C)C)NC(=O)c2cc([N+](=O)[O-])cc(I)c2OCC[C@@H](C(N)=O)NC1=O,-13,.,-3,-5,0,4,.,7,
Cn1nnnc1SCC(=O)Nc1nc(-c2ccc(F)c(F)c2)cs1,-13,i,8,-5,6,0,.,0,
O=c1c2ccccc2[nH]c(=S)n1CCC1=CCCCC1,.,i,-20,4,-7,-3,-20,-12,
O=C(Nc1ccc(Nc2ccccc2)cc1)c1ccc(Br)cc1,-4,i,-2,2,2,-1,-4,-4,
CNC(=O)Nc1ccccc1C(=O)Nc1ccccc1,-3,i,3,-6,7,-1,-21,-5,

# Next section; it opens with the four that closed the last part.
SMILES,Yeast UUG start,Rce1 inhib,PABP polyA inh,CSC inhib,MT1-MMP act inh,MT1-MMP act inh RFP,HIV Env fusion,eIF4H inh,others
Cn1nnnc1SCC(=O)Nc1nc(-c2ccc(F)c(F)c2)cs1,-13,i,8,-5,6,0,.,0,
O=c1c2ccccc2[nH]c(=S)n1CCC1=CCCCC1,.,i,-20,4,-7,-3,-20,-12,
O=C(Nc1ccc(Nc2ccccc2)cc1)c1ccc(Br)cc1,-4,i,-2,2,2,-1,-4,-4,
CNC(=O)Nc1ccccc1C(=O)Nc1ccccc1,-3,i,3,-6,7,-1,-21,-5,
CC(NC(=O)COC(=O)CC(c1ccccc1)c1ccccc1)c1ccccc1 (stereo not given),.,i,-9,1,1,0,-6,-4,
Cc1ccc2c(-c3ccc([N+](=O)[O-])cc3)cc(=O)[nH]c2c1,.,i,-14,24,2,-4,-1,15,
COc1cccc(/C=C2\SC(=O)N(CCC(=O)N3CCCCC3CCO)C2=O)c1 (stereo not given),-3,i,16,18,2,-4,8,-6,
Cc1cc2nc3c(nc2cc1C)C1(C(=O)N(C)C)CCC3(C)C1(C)C (stereo not given),-15,i,10,0,-4,3,16,-3,
O=C(COc1ccccc1Br)Nc1ccc(S(=O)(=O)N2CCCC2)cc1,-17,.,.,7,4,-6,-21,.,
CC1(C)CC(=O)C=C(Nc2ccc3c(c2)OCCO3)C1,-20,i,-3,1,2,3,.,-4,
Cc1ncc([N+](=O)[O-])n1CC(=O)Nc1ccc(Br)cc1,-11,i,-6,-17,.,.,18,-5,
CC(=O)c1ccc(NC(=O)NC2CCCc3ccccc32)cc1 (stereo not given),-9,i,8,-7,0,-5,7,-10,
Cc1onc(-c2ccccc2)c1C(=O)N/N=C/c1cc2c(cc1Br)OCO2,.,i,2,8,-2,-15,29,2,
CCNc1nc(NCC)n2c(SCC(=O)N3CC4(C)CC3CC(C)(C)C4)nnc2n1 (stereo not given),.,i,1,-13,2,4,9,-8,
CC(C)(C)c1ccc(OCCOCCn2cnc3ccccc3c2=O)cc1,.,i,-6,-6,3,-3,7,2,
Cc1cccc(Nc2nnc(SCC(=O)NCc3cccs3)s2)c1,.,i,-1,-7,-1,4,-2,0,
Cc1cccc(N=C2NN=C(c3ccc4c(c3)OCCO4)CS2)c1,-26,i,1,4,-7,0,.,0,
COc1ccccc1CNC(=O)CN1NS(=O)(=O)c2ccccc2C1=O,-1,.,.,2,-2,0,?,.,
CC(C(=O)O)c1ccc(-c2ccccc2)c(F)c1 (stereo not given),1&-7&-4,i,-3,7,2&-2,0&2,-5&-1,-1,
O=C(NCC1CCCO1)C1CCN(C2CCN(CCCC3CCCC3)CC2)CC1 (stereo not given),.,i,-4,1,0,3,13,-7,
COc1ccc(CC(=O)NCC2(N3CCCCC3)CCCCC2)cc1,.,i,-16,-7,-2,1,1,-5,
O=Cc1ccc(OCCN2CCCC2=O)cc1,3,i,2,-3,1,3,-19,8,
CC1=CC(C)(C)NC(=S)N1c1cccc(Cl)c1,-25,.,.,.,7,-1,-15,.,
O=C(Nc1ccc(F)cc1)c1ccccc1NC(=O)C1CCCCC1C(=O)O (stereo not given),-11,.,.,.,-5,-6,-11,.,
Cc1nc(NC(=O)/C=C/c2ccccc2)sc1C(=O)Nc1cccc(Cl)c1,-7,i,-6,33,-1,-9,-8,1,
Cc1cc(OCC(=O)Nc2ccc(N3CCCC3)cc2)cc(C)c1Cl,-10,i,8,-6,6,5,.,-9,
O=C(COc1ccc(Cl)cc1)NCCSCc1cccc(Cl)c1,-7,i,-9,.,7,1,.,-14,
COc1ccc(CCC(=O)Nc2nc(C)c(C(=O)N(C)C)s2)cc1,-14,i,6,23,0,1,3,0,
C/C(CC(=O)Nc1ccc(N(C)C)cc1)=N\NC(=O)c1cnccn1,-23,i,2,-11,6,-1,-7,3,
CC(C)C(C)NC(=O)COc1ccc(S(=O)(=O)N2CCOCC2)cc1Cl (stereo not given),-2,i,10,-8,3,3,-8,-1,
CCOc1ccc(C2=NNC(c3cccs3)=Nc3ccc(OCC)cc32)cc1,.,i,-1,4,.,.,.,-6,
NC(=O)Nc1ccc(C(=O)N2CCN(S(=O)(=O)Cc3ccccc3)CC2)cc1,-10,.,.,-11,2,3,.,.,
Cc1ccccc1Cn1c(C)c(C(=O)NCc2cccc(Cl)c2)sc1=O,-12,.,.,.,9,1,-8,.,
C[C@H](CO)N1C[C@H](C)[C@@H](CN(C)Cc2ccc(C(=O)O)cc2)Oc2ccc(NS(=O)(=O)c3cn(C)cn3)cc2C1=O,-11&-13,.,.,.,0,0,8,.,
CCCCn1c(SCC(=O)NCc2ccco2)nc2cc(S(N)(=O)=O)ccc21,9,i,12,-10,3,0,.,-2,
